EPAC1 ag val – Validation qHTS for agonist of cAMP-regulated guanine nucleotide exchange factor 3 (EPAC1). EPAC1 Rap1b BODIPY-GDP exchange, fluorescence. Potency, µM, without a hit: max response, positive = active, usual class: activators. hit rate 1% among 16,000; active = well fitted activation curve with a large enough effect; inconclusive = small, poorly fitted or top-dose-only effect; inactive = no such curve, though single readings can be large or run the other way;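 note: nearly all actives have a fitted effect of over 70% in size; series mostly up to about 76 or 150 µM; scaled to a cAMP control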
Target sequence (O95398 whole entry, looked up): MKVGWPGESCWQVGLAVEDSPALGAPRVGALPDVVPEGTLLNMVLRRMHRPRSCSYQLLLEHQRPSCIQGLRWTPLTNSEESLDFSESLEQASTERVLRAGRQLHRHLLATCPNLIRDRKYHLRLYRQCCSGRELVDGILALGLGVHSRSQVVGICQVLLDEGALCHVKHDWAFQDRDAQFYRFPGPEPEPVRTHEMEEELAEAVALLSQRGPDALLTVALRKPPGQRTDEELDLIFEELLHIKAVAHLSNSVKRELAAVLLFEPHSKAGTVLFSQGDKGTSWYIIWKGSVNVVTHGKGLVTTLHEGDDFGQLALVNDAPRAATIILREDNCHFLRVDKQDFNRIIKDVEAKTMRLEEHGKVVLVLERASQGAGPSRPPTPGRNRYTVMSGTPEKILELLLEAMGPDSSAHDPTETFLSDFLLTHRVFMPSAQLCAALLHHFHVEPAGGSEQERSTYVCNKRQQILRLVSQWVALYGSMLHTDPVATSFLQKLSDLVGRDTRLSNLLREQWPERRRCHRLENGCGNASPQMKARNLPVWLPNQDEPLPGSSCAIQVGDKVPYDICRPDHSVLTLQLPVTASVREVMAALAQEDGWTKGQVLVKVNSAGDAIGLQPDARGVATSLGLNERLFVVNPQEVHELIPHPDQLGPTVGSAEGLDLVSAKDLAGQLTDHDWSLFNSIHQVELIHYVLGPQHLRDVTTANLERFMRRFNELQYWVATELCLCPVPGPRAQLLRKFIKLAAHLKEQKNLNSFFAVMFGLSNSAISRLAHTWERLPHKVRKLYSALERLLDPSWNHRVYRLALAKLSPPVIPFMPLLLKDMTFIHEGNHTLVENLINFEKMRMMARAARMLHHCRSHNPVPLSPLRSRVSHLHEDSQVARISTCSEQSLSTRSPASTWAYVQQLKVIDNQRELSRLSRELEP
Active calls of the source: *; ? = inconclusive; & = joins results of further samples; [ ] = dose if it differs, or a comment. % is set by controls: 0 for no effect and ±100 for the full control effect; potency is the fitted concentration of half-maximal effect.

smiles	EPAC1 ag val
CC1CC2(C)Oc3ccccc3C3OCC1(COC(=O)Nc1ccccc1)C(C)C32 (configuration not stated)	?
C[C@H](N)CCCP(=O)(O)O	-15.9%
COc1ccc(OC)c2c(=S)c3ccccc3[nH]c12	-14.3%
Cc1noc(C)c1-c1ccc2ncnc(N3CCOCC3)c2c1	?
COC(=O)Nc1nc2ccc(C(=O)c3ccccc3)cc2[nH]1	-25.6%&-5.8%
COc1ccc(CCNC(=O)c2cnn(-c3nccc(-c4cccs4)n3)c2C)cc1OC	-19.4%
COC(=O)C[C@H]1c2cc(C(F)(F)F)ccc2S(=O)(=O)N1Cc1ccccc1OC	?
O[C@H](CCCN1CCN(c2ncc(F)cn2)CC1)c1ccc(F)cc1	-14.5%
C[n+]1cc2c3c(ccc2c2ccc4cc5c(cc4c21)OCO5)OCO3	?
Cc1c(C(=O)N2CCCCC2)sc2ncnc(NCCN(C)C)c12	21.7%
CCCn1c(=O)c(C)cn2nc(N)nc12	-3.0%&-1.0%
O=C(c1cnccn1)N1CCC2(CC1)CN(Cc1nccs1)C2	9.1%
C[C@@H]1CN(Cc2ccc3c(c2)CN(Cc2ccc(Oc4ncccn4)cc2)CCO3)C[C@H](C)O1	-1.6%
CCC1CN(CCNC(=O)C(C)(C)O)Cc2cc(OC)ccc2O1 (configuration not stated)	-0.4%
Cc1ncc2c(c1CNS(=O)(=O)N(C)C)CCN(C(=O)c1[nH]c3ccc(Cl)cc3c1C)C2	12.9%

smiles	EPAC1 ag val
COc1ccc(-c2cn(Cc3ccc(C(=O)c4ccccc4)cc3)nn2)cc1	?
CC(C)NCC1CCc2cc(CO)c([N+](=O)[O-])cc2N1 (configuration not stated)	-1.8%
COC(C)(C)CCCC(C)C/C=C/C(C)=C/C(=O)O (configuration not stated)	-7.6%
CC(=O)N1CCC2(CC1)CN(c1ccncc1)C2	-41.5%[inhibitor]
O=c1c(-c2ccccc2)nc2cncnc2n1C1CC1	13.9%
COC(=O)c1c(OCc2ccccn2)cc(=O)n2c1CCN(Cc1ccc3c(c1)CCCN3C)CC2	-11.0%
COc1cccc(CN(C)C(=O)c2cnn(-c3ncc4c(n3)-c3ccccc3CCC4)c2C)c1	6.7%
CN(C)c1ccc(-c2cc(-n3ccnc3)ncn2)cc1	9.5%
CC[C@@]1([C@@H]2O[C@@H]([C@H]3O[C@@](O)(CO)[C@H](C)C[C@@H]3C)C[C@@H]2C)CC[C@H]([C@]2(C)CC[C@]3(C[C@H](O)[C@@H](C)[C@@H]([C@@H](C)[C@@H](OC)[C@H](C)C(=O)O)O3)O2)O1 (stereo in doubt)	-29.2%&-9.9%
COc1ccc(OC)c(CN2CCCC(c3nc(C)ncc3-c3ccc(F)cc3)C2)c1 (configuration not stated)	-4.3%
CC1CC2C3CCC4=CC(=O)C=C[C@@]4(C)[C@]3(F)C(O)C[C@]2(C)[C@]1(O)C(=O)CO (some centres not stated)	?
Cn1cccc1C(=O)N1CCC2(CC1)CN(c1cccc(-c3ccccc3)c1)C2	112µM*
N[C@H](C(=O)O)c1cc(O)cc(O)c1	10.8%&-6.5%&2.0%&-3.4%
Cc1cccc(CNc2ccnc(-c3cccc(C#N)c3)n2)c1	?
CCCCN(CCCC)c1ccc(/C=C/c2ccnc3ccccc23)cc1	112µM*

Three compounds already listed, ordered by the number in EPAC1 ag val, smallest number first.
molecule | EPAC1 ag val
C[C@H](N)CCCP(=O)(O)O | -15.9%
COC(=O)c1c(OCc2ccccn2)cc(=O)n2c1CCN(Cc1ccc3c(c1)CCCN3C)CC2 | -11.0%
COc1cccc(CN(C)C(=O)c2cnn(-c3ncc4c(n3)-c3ccccc3CCC4)c2C)c1 | 6.7%

(cont.)
smiles	EPAC1 ag val
COCCn1c(=O)c(-c2ccc(F)cc2)nc2cnc(Oc3ccccc3)nc21	-10.6%
O=c1c(O)c(-c2cc(O)c(O)c(O)c2)oc2cc(O)cc(O)c12	-6.4%&-64.5%&1.7%
NCC1O[C@H](O[C@@H]2C(O)[C@H](O[C@H]3OC(CO)C(O)C(N)C3O)[C@@H](N)C[C@H]2N)[C@@H](N)CC1O (some centres not stated)	13.3%
O=c1c(-c2ccc(Cl)cc2)nc2cncnc2n1Cc1ccccc1Cl	112µM*
Fc1ccc(Nc2ccnc(-c3ccccc3C(F)(F)F)n2)cc1	-51.4%[inhibitor]
C=C(C)C1COc2cc3oc(=O)ccc3cc2O1 (configuration not stated)	16.9%
CS(=O)(=O)c1ccc(-c2cc(Br)sc2-c2ccc(F)cc2)cc1	21.8%
COc1ccc(-c2cc(C)cc3c2OC(CNC(=O)/C=C/c2ccncc2)C3)nn1 (configuration not stated)	-20.5%
O=C1NC(=O)/C(=C/c2ccc3nccnc3c2)S1	-7.9%
CN(C)c1ncc2nc(-c3ccc(F)cc3)c(=O)n(Cc3cccs3)c2n1	-11.9%
O=C(Nc1ccccc1)C12CC1/C(=N\O)c1ccccc1O2 (configuration not stated)	-9.2%
Cc1cnc(-n2ncc(C(=O)N(C)C3CCOC3)c2C)nc1-c1ccc(F)cc1 (configuration not stated)	1.4%
CC(C)C[C@@H](CN=[N+]=[N-])N1CCN(CC(C)C)CCC1=O	-11.7%
N#CCCn1c(=O)c(-c2ccccc2)nc2cnc(Nc3ccccc3)nc21	22.5%
Cn1c(=O)c(-c2ccc(F)cc2)nc2cnc(Oc3ccccc3)nc21	-72.3%[inhibitor]

smiles	EPAC1 ag val
Cc1ncc2c(c1CNC(=O)/C=C/c1cccs1)CCN(C(=O)c1ccc3c(c1)OCCO3)C2	-3.1%
CCN1CCCC(OC(=O)C(c2ccccc2)c2ccccc2)C1 (configuration not stated)	-0.3%&-18.2%
CC[N+](CC)(CCNC(=O)C(=O)NCC[N+](CC)(CC)Cc1ccccc1Cl)Cc1ccccc1Cl	?
O=C(c1cnccn1)N1CCC[C@@]2(CCN(Cc3ccncc3)C2)C1	-11.0%
C=CCN1CCc2c(cc(O)c(O)c2Cl)C(c2ccccc2)C1 (configuration not stated)	10.2%&-7.7%
CCC1(C2CCN(C(=O)c3ccc4ccccc4c3)CC2)NC(=O)N(CCc2scnc2C)C1=O (configuration not stated)	-2.4%
Nc1nc(NCCc2ccc(O)cc2)nc2nc(-c3ccco3)nn12	-20.1%&11.3%
O=C1c2c(O)cccc2Cc2cccc(O)c21	26.3%&-0.3%
Cc1cnc(CNc2ncnc3ccc(-c4ccccc4CN(C)C)cc23)cn1	-12.9%
CCC(C)[C@H]1COCCS(=O)(=O)N1Cc1ccc(C)cc1 (some centres not stated)	-53.4%[inhibitor]
COc1ccccc1CN1CCOc2ccc(CN3CCC(Oc4cccnc4)CC3)cc2C1	-3.6%
Cc1cc(C)cc(CN2CCOc3ccc(CN4CCC(O)(c5cccnc5)CC4)cc3C2)c1	-19.4%
CO	12.5%
N=c1ccn2c(n1)O[C@H]1[C@H](O)[C@@H](CO)O[C@H]12	0.9%&-22.0%
CCN[C@H]1CN(CCCOC)S(=O)(=O)c2sc(S(N)(=O)=O)cc21	-15.0%

3 structures already listed, ordered by formula weight, smallest number first:
smiles	EPAC1 ag val
N=c1ccn2c(n1)O[C@H]1[C@H](O)[C@@H](CO)O[C@H]12	0.9%&-22.0%
C=CCN1CCc2c(cc(O)c(O)c2Cl)C(c2ccccc2)C1 (configuration not stated)	10.2%&-7.7%
O=C(c1cnccn1)N1CCC[C@@]2(CCN(Cc3ccncc3)C2)C1	-11.0%

Next part:
smiles	EPAC1 ag val
Cc1cc(Cl)ccc1OCC(=O)N1CCOc2ccc(CN3C[C@@H](C)O[C@@H](C)C3)cc2C1	4.0%
COc1ccc(CNc2nc(-c3ccoc3)nc3ccccc23)c(OC)c1	?
Cc1cnc(C)c(-c2cccc3c2OC(CNC(=O)c2cc(C)on2)C3)n1 (configuration not stated)	-2.8%
O=C(NCc1nnc2n1CCN(Cc1ccccc1C(F)(F)F)CC2)c1ccncc1	-17.3%
O=S(=O)(c1ccccc1)N1CCC2(CC1)CN(c1ccccc1)C2	?
Cc1ccc2nc(-c3ccccc3C)c(CN(CC3CCCO3)C(=O)c3cccs3)cc2c1 (configuration not stated)	-6.0%
CC(C)(C)CC(C)(C)c1ccc(O)c(-n2nc3ccccc3n2)c1	2.2%
C=CC(C1=CC(=O)C(OC)=C(OC)C1=O)c1ccccc1 (configuration not stated)	-24.2%
COc1ccc(C(=O)N2CCC3(CCCN(c4ccncc4)C3)CC2)cc1	5.6%
CCCN1CCC(=O)N([C@H](CO)CC(C)C)CC1	-17.8%
Cc1ccccc1C(=O)N1CCc2c(cnc(C)c2CNC(=O)CN2CCCCC2)C1	-26.1%
COc1ccc2c(c1)OC(C)CN(CCC(=O)NCC1OCCc3ccccc31)C2 (configuration not stated)	3.7%
O=C(NCC1CCC2(CCN(Cc3cccc4ncccc34)CC2)O1)c1ccccc1 (configuration not stated)	8.0%
COc1cc(OC)c2c(c1Cl)OC1(C2=O)C(O)=CC(=O)CC1C (configuration not stated)	?
C[C@H]1CCC(=O)N([C@H](CN=[N+]=[N-])Cc2ccccc2)CC1	-9.2%

smiles	EPAC1 ag val
C=CC(C)(O)CC1[C@@]2(C)CCCC(C)(C)C2CC[C@]1(C)O (some centres not stated)	-50.5%[inhibitor]
Cc1cccc(-c2[nH]c(C(C)(C)C)nc2-c2ccc3nccnc3c2)n1	1.6%
O=S(=O)(NCCCCCCc1ccccc1)c1cccc2c(Cl)cccc12	25.5%
CN(C)CC(C)(O)c1ccc2c(c1)CN(Cc1cccn1-c1cccnc1)CCO2 (configuration not stated)	-10.4%
CCCCNC(=O)[C@@H]1CC=C[C@@H]2CCN(Cc3ccc(Cl)c(Cl)c3)C(=O)[C@@H]21	-26.8%
O=C1NCCN1CCN1CCC(c2cn(-c3ccc(F)cc3)c3ccc(Cl)cc23)CC1	20.5%&17.9%
CC/C=C\C/C=C\C/C=C\C/C=C\C/C=C\CCCC(=O)O	-31.4%[inhibitor]
CCCCCCCCCCCC[n+]1ccc(C)c2ccccc21	14.3%
COCCNc1ncnc2ccc(-c3ccoc3)cc12	-2.4%
CC[N+](C)(C)Cc1ccccc1Br	6.0%
CN(C)CCN(Cc1ccccc1)c1ccccn1	-36.0%[inhibitor]
COc1cc(=O)n2c(c1C(=O)NC(C)c1ccco1)CCN(C(=O)c1ccccc1SC)CC2 (configuration not stated)	-6.5%
Cc1nc2ccccc2nc1/C=C/c1ccc(N(C)C)cc1	-52.6%[inhibitor]
c1nc(NC2CCNCC2)c2cc(-c3ccoc3)ccc2n1	-18.5%
CN(C)C(=O)c1ccc(-c2ccc3ncnc(NCCN4CCOCC4)c3c2)cc1	3.5%

smiles	EPAC1 ag val
O=C(c1ccncc1)N1CCC2(CCCN(c3ccccc3)C2)CC1	-4.3%
Cc1c(C(=O)NCC2(N3CCCCC3)CCCC2)cnn1-c1nccc(-c2ccccc2F)n1	-10.7%
Cc1oc(-c2ccccc2NC(=O)c2ccccc2)nc1CNC(=O)c1c(-c2ccccc2)noc1C	14.0%
CCNc1ncc2nc(-c3ccc(Cl)cc3)c(=O)n(CCC#N)c2n1	?
CN(C)Cc1ccccc1	6.0%
COC(=O)[C@@H]1CCCN1Cc1ccc2c(c1)CN(Cc1cccn1-c1ccccn1)CCO2	-0.8%
NC(Cn1ccc(=O)c(O)c1)C(=O)O (configuration not stated)	25.2%
CC(C)C(C)/C=C/C(C)C1CCC2C3=CCC4CC(=O)CC[C@@]4(C)C3CC[C@]21C (some centres not stated)	?
CCCN1CCN(C(=O)c2cnn(-c3ncc4c(n3)-c3ccccc3CCC4)c2COC)CC1	-0.3%
NCCS(=O)(=O)O	-2.6%&10.9%&-49.0%
O=[N+]([O-])O[C@@H]1CO[C@H]2[C@@H]1OC[C@@H]2O	-2.7%
COc1ccc(CN2CCC3(CC2)c2ccccc2[C@@H](NC(=O)c2ccsc2)[C@@H]3OC)cc1O	17.8%
CC(=O)N1CCC2(CC1)CN(C(=O)Nc1cccc(C#N)c1)C2	8.5%
CC(C(=O)O)c1ccc(/C=C2\CCCCC2=O)cc1 (configuration not stated)	13.5%
COc1ncc2nc(CCc3ccccc3)c(=O)n(CCC#N)c2n1	-54.2%[inhibitor]

smiles	EPAC1 ag val
CN1[C@@H]2CCC[C@@H]1CC(NC(=O)c1nn(C)c3ccccc13)C2 (some centres not stated)	-9.7%
CC(=O)OC1C[C@@]2(C)C(c3ccoc3)OC(=O)C3O[C@@]32[C@]2(C)C(OC(C)=O)CC3C(C)(C)C(OC(C)=O)CC(OC(C)=O)[C@@]3(C)C12 (some centres not stated)	20.0%
CC(=O)Oc1cc(OC(C)=O)c2c(c1)OC(c1ccc(OC(C)=O)c(OC(C)=O)c1)C(OC(C)=O)C2 (configuration not stated)	20.1%&-15.6%
CCC(C)[C@H]1COCCS(=O)(=O)N1Cc1ccc(Cl)cc1Cl (some centres not stated)	-29.6%
Nc1ncnc2c1nc(Br)n2C1CC(O)C(CO)O1 (configuration not stated)	-3.2%
Brc1ccc([C@H]2CN3CCSC3=N2)cc1	-3.8%
Cc1ccc(CN2CCOc3ccc(C(C)(O)COc4ccccc4)cc3C2)o1 (configuration not stated)	3.7%
CCCCCC(N)=O	-17.4%
COc1cccc(-c2ccc3ncnc(NCCc4c[nH]c5ccc(OC)cc45)c3c2)c1	?
COC(=O)[C@@H]1CCCN1C(=O)c1c(OC)cc(=O)n2c1CCN(Cc1ccc3c(c1)OCCO3)CC2	14.7%
CCOc1ccc(N=Nc2ccc(N)cc2N)cc1	4.8%

Screening data from PubChem.

Only part of the results is shown. The share of hits here may be higher or lower than overall.
